Assay outcomes (PubChem BioAssay)
Rango release inh: prevents RanGTP from dissociating the Rango-importin beta complex; Biochemical FRET Rango-importin beta, RanGTP-induced dissociation; 340,000 compounds, 0.071% hits; Potency, µM (top dose mostly 46.1 µM), for inactives: top-dose activity change, negative = inhibition; active means falling FRET ratio curve, often poorly fitted, with flat reads before Ran was added; inconclusive means other falling curves, or compound fluorescence or quenching; inactive means flat or rising ratio curve;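 note: potency is the fitted concentration of half-maximal effect; % of control where 0% means no effect; nearly all actives have a fitted effect of over 45% in size; -100% = wells without RanGTP and RCC1; the record marks most hits as doubtful in a second field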
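Quantitative HTS using a FRET biosensor: 0.1 uM Rango, 0.25 uM importin beta, 0.6 uM Ran, 2 mM GTP, 0.2 uM RCC1 final, PBS with DTT, Tween-20 and BSA. Post-read taken 45 min after Ran addition.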
Rango complex inh: Rango-importin beta binding inhibition; Potency, µM (doses to about 92.2 µM), for inactives: at the top dose inhibition of complex formation; 340,000 compounds, 0.031% hits; Rango CFP/YFP FRET sensor + importin beta, 45 min; Q14974; active = rising FRET ratio curve, often small or poorly fitted; inconclusive = mostly compound fluorescence or quenching in the first reads; inactive = flat curves in all reads;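 note: potency is the fitted concentration of half-maximal effect; 0% = DMSO wells and 100% = buffer wells lacking importin beta; nearly all actives have a fitted effect of over 15% in size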
Target sequence (Q14974 whole entry, looked up): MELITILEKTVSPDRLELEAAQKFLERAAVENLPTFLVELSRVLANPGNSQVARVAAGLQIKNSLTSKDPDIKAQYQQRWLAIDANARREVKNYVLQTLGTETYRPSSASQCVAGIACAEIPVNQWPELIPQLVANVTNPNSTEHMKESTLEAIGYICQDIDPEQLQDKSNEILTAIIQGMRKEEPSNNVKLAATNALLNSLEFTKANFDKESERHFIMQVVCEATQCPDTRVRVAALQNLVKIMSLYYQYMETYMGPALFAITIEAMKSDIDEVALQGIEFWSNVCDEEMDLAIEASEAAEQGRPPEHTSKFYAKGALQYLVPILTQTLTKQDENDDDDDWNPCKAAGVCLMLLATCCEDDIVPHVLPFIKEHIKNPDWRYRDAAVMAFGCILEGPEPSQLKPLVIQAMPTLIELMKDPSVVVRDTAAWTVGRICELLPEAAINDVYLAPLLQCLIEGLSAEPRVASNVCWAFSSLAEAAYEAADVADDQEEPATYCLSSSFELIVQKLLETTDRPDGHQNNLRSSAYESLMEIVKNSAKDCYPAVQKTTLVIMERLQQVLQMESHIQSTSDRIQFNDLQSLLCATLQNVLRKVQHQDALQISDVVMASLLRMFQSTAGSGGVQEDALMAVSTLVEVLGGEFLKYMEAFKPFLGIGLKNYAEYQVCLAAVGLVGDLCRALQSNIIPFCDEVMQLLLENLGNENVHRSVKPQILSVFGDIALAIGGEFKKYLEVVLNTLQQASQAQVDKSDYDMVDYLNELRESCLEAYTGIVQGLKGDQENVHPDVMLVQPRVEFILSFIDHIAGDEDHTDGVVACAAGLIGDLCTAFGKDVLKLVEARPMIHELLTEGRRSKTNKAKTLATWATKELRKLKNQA
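FRET biosensor (snurportin 1 IBB flanked by EYFP and cerulean), 50 nM, with compound 5 min, then 0.125 microM importin beta in PBS, 1 mM DTT, 0.02% Tween-20, 0.1% BSA. CFP/YFP ratio read after 45 min at room temperature; pre-read flags interference.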
GLA inh pH 4.5: alpha-galactosidase A (human) inhibition, pH 4.5; purified enzyme, 4-MU-alpha-Gal fluorescence, pH 4.5; activity change, negative = inhibition, % at 105 µM; 230,000 tested, under 10 active; AID 1467; inconclusive = small, poorly fitted or top-dose-only inhibition, or a rising curve; inactive = flat fitted curve, though single readings scatter; no compound was filed as active;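 note: 0% = full activity with enzyme and -100% = basal without enzyme; dose as in the result columns while the protocol names 77 µM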
miR-21 reporter: raises the signal of a miR-21 reporter | HeLa miR-21 FLuc reporter, luciferase, 48 h | Potency, µM (series often up to 38.3 µM), inactives show at the top dose reporter change, positive = more light | 340,000 tested, under 10 active | AID 2288; active = well fitted rising curve with a large enough effect; inconclusive = small, poorly fitted or top-dose-only effect; inactive = no such curve, though single readings can be large or run the other way;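 note: % of control where 0% means no effect; miR-21 action dims this reporter so a rising signal means less miR-21 action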
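Using DMEM plus 10% FBS, HeLa miR-21-FLuc cells are incubated with test compounds (final up to about 40uM) for 48 hours; firefly luciferase signal is then imaged following reagent-mediated lysis.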
* marks the source's active call; other numbers are inactive results; ? = inconclusive; / = no result given; & = joins results of further samples. A portion of the library, so the mix of outcomes need not match the whole.

Start of the data: the first 2 records as a preview:
SMILES	Rango release inh	Rango complex inh	GLA inh pH 4.5	miR-21 reporter
Cc1ccc(S(=O)(=O)Oc2ccccc2)cc1	-24%	5.8%	/	/
CCC1CCCCN1C(=O)C(=O)c1cn(CC(=O)N(CC)CC)c2ccccc12 (stereo not given)	0%	3.5%	/	2%

All compounds of this part, previewed entries included:
SMILES	Rango release inh	Rango complex inh	GLA inh pH 4.5	miR-21 reporter
Cc1ccc(S(=O)(=O)Oc2ccccc2)cc1	-24%	5.8%	/	/
CCC1CCCCN1C(=O)C(=O)c1cn(CC(=O)N(CC)CC)c2ccccc12 (stereo not given)	0%	3.5%	/	2%
O=C(NCc1ccco1)c1cccs1	3%	?	-12	0%
CC(C)(C)OC(=O)NN1CC(=O)N2[C@@H](Cc3c([nH]c4ccccc34)C2(C)C)C1=O	-17%	-0.4%	/	2%
Cc1cc(OCCN2CCC(Cc3ccccc3)CC2)ccc1[N+](=O)[O-]	9%	-1.1%	/	0%
Cn1c(SCc2ccccc2)nc(N)c(N=O)c1=O	-4%	-4.0%	/	/
CCn1c(SCC(=O)NNC(=O)c2ccc(C)cc2)nnc1-c1ccco1	2%	-2.7%	7	-5%
COC(=O)C1=C(C(=O)OC)[C@@H]2Nc3ccccc3[C@@]23C[C@@H](C(=O)OC)N(C(=O)C2CCC2)C3=N1	2%	-0.6%	5	/
S=C(NCCc1ccncc1)Nc1cccc2ccccc12	2%	-0.9%	3	4%
CCOC(=O)c1cc2occc2n1CC(=O)NC1CCC(C)CC1 (stereo not given)	30%	-4.9%	-1	-2%
CCN(CC(=O)NCc1cccs1)C(=O)c1ccc(OC)c(OC)c1	1%	-3.7%	/	/
OCC[C@@H]1C[C@@H](O)[C@H](O)[C@]2(CCc3ccccc3CO2)O1	-21%	-1.2%	/	-1%
COC(=O)c1ccc(N2CCN(C(C)=O)CC2)c(NC(=O)c2cccnc2)c1	5%	-0.2%	2	0%
CC(=O)Nc1ccc(-n2nnnc2SCC(=O)N2CCN(C(=O)c3ccco3)CC2)cc1	19%	1.4%	-5	2%
O=C(Nc1ccccc1-c1nc2ccccc2[nH]1)c1ccc(N2C(=O)CCC2=O)cc1	4%	0.3%	12	-2%
CC1CCN(S(=O)(=O)c2ccc(NC(=O)CN3CCOCC3)cc2)CC1	-2%	1.8%	6	-1%
O=C(CN1CCCCCC1)N/N=C/c1cccc(Cl)c1	16%	0.2%	-4	-5%
COc1cc(CC(=O)NC2CCCc3ccccc32)cc(OC)c1OC (stereo not given)	-2%	-1.6%	/	3%
O=C(NC1CCCCC1)Nn1c(-c2ccccc2)nc2ccccc2c1=O	10%	0.4%	8	-1%
Cc1noc(C)c1CSc1nc2ccccc2s1	2%	-3.3%	-7	-23%
CCn1c(SCC(=O)NCCc2ccccc2)nnc1-c1ccco1	3%	0.5%	1	0%
Cc1nnc2ccc(N3CCN(C(=O)c4ccccc4)CC3)nn12	-5%	1.0%	9	0%
c1ccc(-n2ncc3cccnc32)cc1	9%	-1.9%	-1	-21%
O=C(O)c1ccc(NS(=O)(=O)c2ccc3c(c2)C2C=CCC2C(c2ccccc2F)N3)cc1 (stereo not given)	?	?	1	-2%
Cc1ccc(S(=O)(=O)N2CCN(C(=O)Cn3c(=O)cnc4ccccc43)CC2)c(C)c1	1%	-2.8%	/	/

Some values from above:
miR-21 reporter result of O=C(NC1CCCCC1)Nn1c(-c2ccccc2)nc2ccccc2c1=O stands at -1%
miR-21 reporter result of Cc1cc(OCCN2CCC(Cc3ccccc3)CC2)ccc1[N+](=O)[O-] stands at 0%

Other entries follow:
SMILES	Rango release inh	Rango complex inh	GLA inh pH 4.5	miR-21 reporter
CCOC(=O)c1c(NC(N)=O)sc(C)c1C	19%	-3.4%	3	-20%
CCOC(=O)Cc1csc(NC(=O)c2ccc(S(=O)(=O)N3CCOCC3)cc2)n1	0%	-0.6%	-3	10%
COc1ccc2c(c1)c(C(O)CN1CCN(Cc3ccc4c(c3)OCO4)CC1)c(C)n2C (stereo not given)	-9%	0.5%	3	-2%
c1cnc(NCCNc2ncccn2)nc1	8%	-9.0%	-5	0%
COC(=O)c1cccc(NC(=O)c2cc3sccc3n2C)c1	-5%	0.1%	-8	-24%
CN1CCN(S(=O)(=O)c2ccc(N3CCN(S(=O)(=O)/C=C/c4ccccc4)CC3)nc2)CC1	1%	0.1%	2	-9%
O=C(Nc1nnc(SCC(=O)N2CCCc3ccccc32)s1)c1cccc2ccccc12	13%	-5.1%	1	-9%
CCc1ccccc1Nc1nc(N)nc(CSCC(=O)c2cc(C)n(C)c2C)n1	3%	0.2%	-16	-4%
CN1CCN(C(=O)/C=C/c2ccc(Cl)c(Cl)c2)CC1	-3%	-0.8%	/	-18%
CCc1ccccc1N(CC)C(=O)CCc1nc(-c2ccc(C)cc2)no1	26%	0.3%	0	6%
Cc1ccc(NC(=O)CN(c2ccccc2)S(=O)(=O)N(C)C)cc1C	13%	6.3%	7	4%
COc1ccccc1C(=O)Nc1c[nH]c(=O)[nH]c1=O	-26%	-2.9%	/	-13%
CCCCOc1ccc(C(=O)C(CN2CCOCC2)c2ccccc2)cc1 (stereo not given)	22%	-1.3%	-7	?
CSc1nc(C)cc(C)c1S(=O)(=O)c1ccccc1C	-6%	?	8	7%
COC(=O)c1nn(-c2cccc(C)c2)c2nnc(Cc3ccc(C)cc3)c(=O)n12	9%	-1.4%	-1	-5%
COc1ccc(-c2noc(CCC(=O)NCCN3CCN(c4ccccc4F)CC3)n2)cc1	-5%	-2.0%	-14	12%
COc1cccc(NC(=O)NC2CCN(CC(=O)Nc3ccccc3[N+](=O)[O-])CC2)c1	27%	2.2%	/	0%
Cn1c(COc2ccc3ccccc3c2)nnc1SCC(=O)OC1CCCCC1	11%	0.9%	-2	-4%
CC(C)(C)C1CCC2(CC1)NC(CO)(CO)CO2 (stereo not given)	2%	1.4%	3	-1%
O=C(CCNC(=O)c1ccccc1)NCc1ccccc1F	-2%	0.5%	/	/
CC(OC(=O)CN1C(=O)C2CC=CCC2C1=O)C(=O)Nc1ccc(F)cc1Cl (stereo not given)	6%	1.6%	/	-1%
O=c1onc(-c2c(F)cccc2F)n1-c1ccccc1Cl	11%	0.9%	/	-4%
CCc1ccc(NC(=O)c2cc(CC(C)C)on2)cc1	13%	-3.1%	6	-49%
CC(C)NC(=O)c1ccccc1NC(=O)CCc1ccccc1	-6%	?	-1	-6%
O=C1c2ccccc2C(O)N1Cc1ccc2c(c1)OCO2 (stereo not given)	21%	3.7%	2	-12%
(listing goes on)
SMILES	Rango release inh	Rango complex inh	GLA inh pH 4.5	miR-21 reporter
COc1cc(NC(=O)C2CCC(CNc3c(N4CCC(C)CC4)c(=O)c3=O)CC2)cc(OC)c1 (stereo not given)	?	-1.6%&-7.4%	-7	-6%
S=C(NCc1ccco1)NCc1ccccc1Cl	8%	6.5%	/	-4%
Cc1nc2sc(C(c3ccco3)N3CCN(c4ccccc4F)CC3)c(O)n2n1 (stereo not given)	-13%	-1.4%	8	-4%
CCN1C(=O)c2ccccc2S(=O)c2ccc(C(=O)NCc3ccccn3)cc21 (stereo not given)	-11%	3.5%	3	-10%
C=C(C)Cn1c(C2CC(=O)N(c3ccccc3F)C2)nc2ccccc21 (stereo not given)	-10%	-0.4%	-5	-6%
CC(C)(C)C1C=C(Sc2ccccc2)C(=O)O1 (stereo not given)	-10%	-0.7%	-1	18%
O=C(NNC(=O)c1sccc1-n1cccc1)c1ccccc1	-15%	-5.3%	4	-12%
CCC(O)(CC)C(=O)N=Nc1c(O)[nH]c2ccccc12	-13%	-8.4%	4	-8%
Cn1c(C(F)(F)F)nc2c(=O)oc3ccccc3c21	-13%	0.1%	4	0%
Cc1c(C#N)c(NC(=O)CCl)n(Cc2ccc(F)cc2)c1C	27%	?	-5	?
COc1cc2c(cc1NC(=O)c1cncc(Br)c1)oc1ccccc12	-11%	0.2%	5	-8%
COc1cccc(C(=O)OCC(=O)NC2CCCc3ccccc32)c1O (stereo not given)	-2%	5.2%	/	/
COc1ccc(C(=O)CC(=O)C(=O)NCCc2cccc(C)c2)cc1	?	?	3	-20%
Cc1ccc(-c2csc(C3=C(O)CN(NC(=O)c4ccco4)C3=N)n2)cc1	5%	-0.2%	3	-14%
CCC(Oc1ccc(F)cc1)C(=O)N1CCCCCCC1 (stereo not given)	0%	3.6%	/	5%
OCCNc1nc(Nc2ccccc2C(F)(F)F)nc(N2CCCC2)n1	11%	4.4%	/	/
COc1ccc(C2C([N+](=O)[O-])=C(C)N(C)C(=O)N2C)cc1OC (stereo not given)	30%	-1.0%	-1	-2%
O=S(=O)(NCCCc1ccccc1)c1ccc(Cl)cc1	0%	-0.6%	-6	0%
CN(C(=O)c1ccno1)c1nnc(-c2cccnc2)s1	2%	2.3%	2	0%
O=C(CSc1ncn[nH]1)N/N=C/c1ccc(F)cc1	-7%	-1.4%	/	/
CCN(CC(=O)Nc1c(F)cccc1F)C(=O)Cc1csc(-c2ccc(OC)c(OC)c2)n1	-1%	-0.2%	/	/
COc1ccc(Br)c(C(=O)Nc2cccc(S(=O)(=O)N3CCOCC3)c2)c1	-7%	-1.3%	/	/
CCOC(=O)C1=C(C)N(c2ccccc2)C(=O)/C1=C\c1cccs1	-9%	-0.6%	-3	-16%
Cc1nc(Nc2cccc(F)c2)c2oc3ccccc3c2n1	-8%	4.3%	/	-9%
CCOCC(O)CS(=O)Cc1ccccc1 (stereo not given)	-4%	-5.0%	-3	-5%

Complete entries from above. Values in the order: Rango release inh | Rango complex inh | GLA inh pH 4.5 | miR-21 reporter
Results for COc1ccc(C2C([N+](=O)[O-])=C(C)N(C)C(=O)N2C)cc1OC (stereo not given) → 30% | -1.0% | -1 | -2%
Results for O=C(NNC(=O)c1sccc1-n1cccc1)c1ccccc1 → -15% | -5.3% | 4 | -12%
Results for CC(C)(C)C1C=C(Sc2ccccc2)C(=O)O1 (stereo not given) → -10% | -0.7% | -1 | 18%

Later entries.
SMILES	Rango release inh	Rango complex inh	GLA inh pH 4.5	miR-21 reporter
CN(C)S(=O)(=O)c1cccc(NC(=O)C2Cc3ccccc3CN2C(=O)c2ccco2)c1 (stereo not given)	8%	?	/	-22%
O=C(Oc1ccccc1N1CCOCC1)c1sccc1Br	10%	-0.3%	-10	-1%
CS(=O)(=O)N(CCc1ccccc1)CC(=O)N1CCN(c2ccccc2F)CC1	19%	-7.4%	-1	7%
COc1cc(NC(=S)NC(=O)c2ccc(F)cc2)ccc1NC(=O)c1ccco1	12%	3.2%	0	-4%
COc1ccc(C)cc1NC(=O)c1sc2ncn(CC(=O)N3CCCCC3)c(=O)c2c1C	15%	0.1%	/	-2%
O=C(Nc1cccnc1)c1ccccc1Cl	2%	0.2%	/	-7%
CC12CCC(C(=O)Nc3cccc(Cl)c3Cl)([C@H](Br)C1=O)C2(C)C (stereo not given in full)	6%	-0.1%	-5	14%
Cc1ccc(N=C2NC(=O)/C(=C/C=C/c3ccco3)S2)cc1	-24%	-3.6%	-3	-17%
O=C(NCCC1=CCCCC1)C1CCN(Cc2cnn(-c3ccccc3)c2-n2cccc2)CC1	-20%	4.0%	-3	23%
Nc1nncn1C(=O)c1ccc(Cl)cc1Cl	14%	1.3%	-8	-2%
CN(C)c1ccc(NC(=O)CSc2nc3ccccc3c(=O)n2C2CCCCC2)cc1	-4%	-1.3%	-4	-4%
CCc1nnc(NC(=O)CCS(=O)(=O)c2ccc(C)cc2)s1	-9%	1.0%	/	/
O=C(N/N=C/c1c(O)ccc2ccccc12)c1ccc(CO)nc1	?	?	/	13%
COc1cc(C(=O)NC2CCN(CC(=O)NC3CCCCC3C)CC2)cc(OC)c1OC (stereo not given)	6%	-4.2%	/	-2%
CCN(CC)S(=O)(=O)c1cc(C(=O)OCC(=O)Nc2c(F)cccc2F)ccc1F	1%	0.0%	-6	0%

A different layout for some results above:
molecule,Rango release inh,Rango complex inh,GLA inh pH 4.5,miR-21 reporter
CCC1CCCCN1C(=O)C(=O)c1cn(CC(=O)N(CC)CC)c2ccccc12 (stereo not given),0%,3.5%,/,2%
O=C(NCc1ccco1)c1cccs1,3%,?,-12,0%
CC(C)(C)OC(=O)NN1CC(=O)N2[C@@H](Cc3c([nH]c4ccccc34)C2(C)C)C1=O,-17%,-0.4%,/,2%
Cc1cc(OCCN2CCC(Cc3ccccc3)CC2)ccc1[N+](=O)[O-],9%,-1.1%,/,0%
